# Screening data deposited in PubChem BioAssay by several laboratories.
# PrP 5UTR inh – inhibition of PrP 5' UTR reporter expression; cell-based PrP 5' UTR mRNA reporter, plate reader; inhibition, % (no concentration beside the values); 340,000 tested, 0.35% active; AID 488862, 2010;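 active = every replicate at 50% or more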;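 note: 0 = median of the neutral control wells; tested in H4 reporter cells; numbers are from one replicate; inactives centre near -14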
# Sa RN4220 lethal – growth inhibition of S. aureus RN4220, primary screen, OD600; 16 h; inhibition, % (concentration not given with the values); 330,000 tested, 0.33% active;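 active = z-score of -3 or lower and OD600 up to 0.18 on both plates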;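 note: plate controls were untreated cells for no effect and reference antibiotic for full effect; stock transfer was 100 nL into about 80 µL; one replicate is shown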
# Sa ugtP lethal – growth inhibition of ugtP-null S. aureus, primary screen, RN4220 ugtP deletion, OD600 | 16 h; some inactives read as strong as hits | growth inhibition, % (test concentration not listed) | 330,000 tested, 0.54% active | AID 1259309, 2017;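 active = z-score under -3 and OD600 up to 0.15 on both plates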;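 note: plate controls were untreated wells for no effect and antibiotic for full effect; wells of about 80 µL received 100 nL stock; the first replicate is given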
# BJeLR lethal – MLPCN primary cell-based screen for lethality selective to Ras in HRASV12 cells; AID 1554, 2009; BJeLR (HRASV12) viability, CellTiter-Glo ATP luminescence, 48 h; reference of the scale not given here; 300,000 tested, 0.17% active; inhibition, % (test concentration not listed);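 active = replicate mean above 50%; inconclusive = above 50% but judged a plate artefact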;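 note: 50 nL library stock added to about 25 µL; numbers are from one replicate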
# Mtb hypoxia rep – PubChem AID 1159583 | M. tuberculosis hypoxia-regulated fluorescent reporter, fluorescence | fluorescence inhibition, % (concentration not given with the values) | 300,000 tested, 0.1% active;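 active = 35 to 45% if threefold the growth effect, above 45% if 1.5-fold the growth effect; inactive = the rest, general growth blockers included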;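 note: wells of about 50 µL received 100 nL stock; 0% = vehicle wells and 100% = reference inhibitor wells; whole bacteria with a GFP reporter of the hypoxia response; strong numbers were not always called active; many hits fall short of the cut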
# Autofluor counter – flagged as autofluorescent in microsphere protease counterscreen | fluorescence intensity (concentration not given with the values) | 360,000 tested, 3.1% active | compound autofluorescence counterscreen, microsphere flow cytometry; stronger effect = higher value;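 active = at least 3 SD above the mean of all compounds, about 16000 in these data; inconclusive = too few beads counted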;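 note: 100 nL of 1 mM stock went into each well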
# Mtb hypoxia rep growth – second read-out of Mtb hypoxia rep, no call of its own (marks repeat the call); growth inhibition, %; measured here: M. tuberculosis growth (absorbance);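 0% = vehicle and 100% = reference antibiotic; read after six days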
# The depositor's hits bear a star; ? = inconclusive; . = no result given.
smiles,Autofluor counter,Sa RN4220 lethal,Sa ugtP lethal,Mtb hypoxia rep,PrP 5UTR inh,BJeLR lethal,Mtb hypoxia rep growth
CCOC(=O)c1cn(CC)c2cc(Cl)c([N+](=O)[O-])cc2c1=O,8251,-3.4,9,-5,-13,3,5
C/C(=N\N=C1/SC(CC(=O)O)C(=O)N1c1ccccc1)c1ccc(C)cc1 (stereo not drawn),3901,.,.,.,-16,-4,.
Cn1c(N)c(C(=O)COC(=O)c2ccccc2C(=O)c2ccccc2)c(=O)n(C)c1=O,5068,3.3,4,10,-18,.,9
Nc1nonc1-n1nnc(C(=O)N/N=C/c2ccc(Br)cc2)c1CN1CCOCC1,5475,.,.,.,-11,0,.
O=C(O)Cc1sc(-c2ccccc2)nc1-c1cccs1,4100,4.5,-10,-7,-20,6,8
Cc1cc(OCc2nnc(SC(C)C(=O)O)n2Cc2ccccc2)ccc1Cl (stereo not drawn),3333,4.5,1,0,-16,0,-6
Cc1ccc(-n2c(SCC(=O)NCc3ccco3)nnc2-c2cccnc2)cc1,2779,-3.8,10,.,-26,2,.
COc1ccc(C(=O)/C=C/c2ccc(O)cc2)cc1,5847,15,6,.,-13,2,.
Cn1c(SCC(=O)Nc2ccc(F)cc2)nc2c([nH]c3ccccc32)c1=O,8781,6.9,5,1,-14,2,3
CN(CC(=O)Nc1c(Cl)cccc1Cl)C(=O)CCC(=O)c1ccccc1,.,3.5,1,4,-13,.,9
Nc1nonc1C(=O)NN=Cc1cc(Br)ccc1O,.,7.5,5,-5,.,.,-1
COc1ccc(NS(=O)(=O)c2ccc(NC(=O)C3CC3)cc2)cc1,5054,2.0,0,6,-6,7,6
Cc1ccc(Oc2ncc(-c3ccc(Cl)cc3)cn2)cc1,5054,2.9,-9,.,-35,-4,.
O=C(N/N=C1/CC2CCC1C2)c1cc2ccccc2cc1O (stereo not drawn),5615,.,.,.,-11,-11,.
COC(=O)c1cc(-c2ccccc2)sc1NC(=O)CN1C(=O)c2ccccc2C1=O,23511*,1.9,-5,7,-24,-3,3
Cc1nc2scc(C)n2c(=O)c1S(=O)(=O)NCc1ccccc1,5458,0.6,5,3,0,2,7
CC1C=C[C@](Cc2ccccc2)(C(=O)NCCc2c[nH]c3ccccc23)N1C(=O)c1ccccc1 (stereo partly drawn),.,3.9,4,5,.,.,5
CCNC(=O)C(=O)Nc1ccc(OC)c(Cl)c1,4156,2.3,6,18,21,0,6
Cc1ccc(S(=O)(=O)N2[C@@H](c3ccc(Cl)cc3)C(C(=O)O)=CC[C@H]2c2ccc(C(C)C)cc2)cc1,3746,25,57,10,-1,.,5
Cc1cccc(C(=O)NNC(=O)c2ccccc2-n2cccc2)c1,3369,7.6,5,11,-27,4,3
COc1ccccc1NC(=S)N1CCn2cccc2C1c1cccnc1 (stereo not drawn),3213,6.9,10,1,7,5,1
CC(=O)c1ccccc1NC(=O)COC(=O)CN1C(=O)C2CCCCC2C1=O (stereo not drawn),5103,4.6,3,4,0,.,1
C=CCn1c(O)c(C(C)=Nc2ccc(N(C)C)cc2)c(=O)[nH]c1=O,?,2.2,3,0,-7,-4,9
COCCNC(=O)CSCc1cc(C)cc(C)c1,2354,2.4,2,1,-15,10,5
O=Cc1ccccc1OCCCOc1cccc2cccnc12,?,48,1,1,-18,1,2

# Continuation.
smiles,Autofluor counter,Sa RN4220 lethal,Sa ugtP lethal,Mtb hypoxia rep,PrP 5UTR inh,BJeLR lethal,Mtb hypoxia rep growth
O=C(CCCn1c(=S)[nH]c2cc3c(cc2c1=O)OCO3)N1CCN(c2ccc(Cl)cc2)CC1,5459,12,-5,15,-27,-10,8
COCCNC(=O)C1CC(c2cccc([N+](=O)[O-])c2)=NO1 (stereo not drawn),3702,2.4,-3,7,-15,1,11
O=C(C[C@@H]1C/C=C\C[C@H](Cc2ccc(F)cc2)C(=O)OC[C@H]2CCCN2C1=O)NCCO,3698,1.8,2,4,-50,.,4
CN(C)S(=O)(=O)c1ccc(Cl)c(NC(=O)CNC2(C)CCS(=O)(=O)C2)c1 (stereo not drawn),3114,3.5,5,5,-10,.,3
O=C(O)c1cc([N+](=O)[O-])cc2ccccc12,3852,4.5,4,15,-12,.,15
CN(C(=O)COC(=O)Cc1c[nH]c2ccccc12)c1c(N)n(Cc2ccccc2)c(=O)[nH]c1=O,3664,2.9,-2,8,-20,.,7
CCOC(=O)C1C2COc3ccc(C)cc3C2N2C(=O)c3cc(Cl)ccc3NC(=O)[C@@]12C (stereo partly drawn),.,0.3,2,7,.,.,13
O=C(c1ccc(S(=O)(=O)N2CCCC2)cc1)N1CCN(Cc2ccc3c(c2)OCO3)CC1,2790,-1.7,-1,.,1,4,.
O=C(Nc1ccccc1Br)c1ccccc1-c1ccccc1,2608,18,18,19,-41,-1,13
COc1ccc(CNC(=O)c2ccccc2NS(C)(=O)=O)cc1,3430,.,.,.,-15,1,.
COc1cccc(-n2nnnc2SCC(=O)NCc2ccc3c(c2)OCO3)c1,8836,0.2,8,5,-3,4,0
CSc1ccc(/C=N/Nc2nc(C)cc(C)n2)cc1,4405,.,.,.,-30,1,.
COc1ccc(OC)c(-n2c(SCC(C)=O)nnc2-c2cccc(S(=O)(=O)N(C)C)c2)c1,6955,5.1,14,6,-3,-26,3
CCNc1nnc(CSc2nc3ccccc3s2)s1,4101,5.2,-1,3,-11,4,3
N#Cc1c(C(F)(F)F)cc(-c2ccccc2)[nH]c1=O,3828,17,2,13,-16,-5,8
O=C(c1ccccc1)c1cc([N+](=O)[O-])ccc1N1CCOCC1,10981,-6.5,5,7,-2,50,11
CC1Oc2ccccc2N(CC(=O)Nc2ccc(F)cc2)C1=O (stereo not drawn),3615,-2.5,0,6,-14,-6,2
COc1cccc(-c2nc(-c3ccc(NC(=O)c4cccnc4)cc3)no2)c1,2620,-9.0,2,.,-14,7,.
CCC(=O)Nc1ccc(C(=O)NN=Cc2c(C)[nH]c3ccccc23)cc1,.,1.7,4,-3,.,.,-9
C=CCn1c(=O)c2ccccc2n2c(SCC(=O)Nc3cc(C)on3)nnc12,6828,7.4,7,8,-4,20,6
CC1CN(C(C)CO)C(=O)c2cc(NS(=O)(=O)c3cn(C)cn3)ccc2OC1CN(C)Cc1ccc(C(=O)O)cc1 (stereo not drawn),.,6.5,4,16,.,.,10
CC(=O)c1nn(-c2cccc(Br)c2)cc1C(=O)c1ccc2ccccc2c1,9319,2.0,-4,-5,-16,-6,-1
C=CCNS(=O)(=O)c1nc(C)c(Cl)c(C)c1C#N,9388,4.6,-3,-3,-8,2,16
COc1ccccc1N1CCN(N=C(C)c2ccc(O)cc2)CC1,.,-0.4,0,2,.,.,16
Cc1cc(C)n2c3c(c(C#N)c2n1)CCCC3,5102,5.2,4,.,-14,-7,.

# Going on with the list.
smiles,Autofluor counter,Sa RN4220 lethal,Sa ugtP lethal,Mtb hypoxia rep,PrP 5UTR inh,BJeLR lethal,Mtb hypoxia rep growth
O=C(C1CC(=O)N(c2ccc(Cl)cc2)C1)N1CCOCC1 (stereo not drawn),5658,1.5,12,3,-24,-2,12
O=[N+]([O-])c1ccc(/C=N/Nc2nc(N3CCCC3)nc(N3CCCC3)n2)o1,6757,.,.,.,-14,6,.
Cc1ccccc1-c1nnc2c3ccccc3c(C)nn12,2996,-13,-4,19,-21,-3,11
CC(=NNc1ccc(S(=O)(=O)N2CCOCC2)cc1[N+](=O)[O-])C(C)C,.,12,5,9,.,.,10
O=C(Cc1ccccc1)Nc1ccc(N2CCOCC2)cc1N1CCOCC1,8590,7.7,-1,3,-43,9,1
CCc1ccc(N(C(=O)c2snc(C(N)=O)c2N)C(C(=O)NCC2CCCO2)c2cccs2)cc1 (stereo not drawn),4523,7.9,0,-4,-12,-4,-7
COc1ccc(/C=N/Nc2ncc(-c3ccccc3)cn2)c(OC)c1,5354,.,.,.,-3,1,.
Cc1cccc(NS(=O)(=O)c2nnc(NC(=O)C3CCCCC3)s2)c1,5395,24,-15,1,-10,1,1
O=C(c1ccc2c(=O)n3c(nc2c1)CCCCC3)N1CCN(c2ccc([N+](=O)[O-])cc2)CC1,5222,1.4,3,1,-11,-9,1
COc1ccc(-n2c(=O)cc(N3CCOCC3)[nH]c2=O)cc1,19939*,3.1,5,8,-8,-1,7
COc1ccc(NC(=O)CSc2nnc(Cc3cccn3C)n2-c2ccc(F)cc2)cc1OC,6767,3.1,-8,.,-13,-7,.
O=C(O)C1C2CCC(C2)C1C(=O)Nc1cc(F)ccc1F (stereo not drawn),10174,2.5,2,8,-20,3,14
CCN(CC)CC(=O)Nc1ccc(/C(C)=N/NC2=NCCN2)cc1,2575,.,.,.,-22,6,.
O=C(CC1C(=O)NCCN1Cc1c(F)cccc1Cl)NCCCN1CCCC1=O (stereo not drawn),5048,-1.8,1,-3,-15,14,-4
CC1=C(C(=O)OC2CCCCCCC2)C(c2cc3c(cc2Br)OCO3)CC(=O)N1 (stereo not drawn),3078,6.2,-11,15,3,-7,7
O=C(O)CSC(=S)N1CCCCC1,3241,3.1,2,5,-17,-12,7
CCc1ccc(/C=N/n2c(C)cc(C)c(C#N)c2=O)cc1,2397,.,.,.,-14,10,.
O=C(O)/C=C\C(=O)Nc1ccccc1N1CCN(c2ccccc2)CC1,3554,0.2,12,12,-25,1,0
Cc1cc(C)cc(OCC(=O)OCC(=O)NC2CCCCCCC2)c1,5172,2.8,6,7,5,2,11
COCc1ccc(CN2CCCC(C(=O)Nc3ccc(-c4cccc(OC)c4)cc3)C2)o1 (stereo not drawn),5337,3.1,5,2,-7,0,7
CCOc1ccc(N2C(=O)NC(Cc3c[nH]c4ccccc34)C2=O)cc1 (stereo not drawn),4898,1.7,0,.,-10,-4,.
CSc1nc2ccc(NC(=O)c3ccc(F)c(F)c3)cc2s1,4590,17,-1,7,-56,3,10
COc1ccc(/C(C)=N/OCC(=O)Nc2nc3ccccc3s2)cc1OC,11031,.,.,.,-17,7,.
COC(=O)CCCCCCCC(=O)Nc1nnc(C(F)(F)F)s1,5893,0.7,2,0,-1,-4,-2
Cc1ccc2nc(CCc3nc4ccc(C)cc4o3)oc2c1,3950,5.1,3,7,-17,-10,4

# Look-ups from the results shown:
# Autofluor counter, `COc1ccc(C(=O)/C=C/c2ccc(O)cc2)cc1` reads 5847
# Mtb hypoxia rep growth, `CC(=O)c1nn(-c2cccc(Br)c2)cc1C(=O)c1ccc2ccccc2c1` reads -1
# BJeLR lethal, `Cc1ccc(Oc2ncc(-c3ccc(Cl)cc3)cn2)cc1` reads -4

# Further compounds follow:
smiles,Autofluor counter,Sa RN4220 lethal,Sa ugtP lethal,Mtb hypoxia rep,PrP 5UTR inh,BJeLR lethal,Mtb hypoxia rep growth
CC(C)c1ccccc1NC(=S)NC(=O)C1CCCCC1,3672,2.6,24,2,-21,.,8
COc1ccc(OCc2cc(C(=O)N3CCC(c4ccccc4)CC3)no2)c(Cl)c1,4275,-5.2,-15,1,-62,-7,1
CCc1ccc2nc(SCC(=O)Nc3nnc(C)s3)c(C)cc2c1,3199,6.2,3,4,-5,5,2
CCCc1nn2c(=O)c(C(c3cccc(Cl)c3)c3c(O)nc4sc(CCC)nn4c3=O)c(O)nc2s1,4928,0.8,3,.,-19,34,.
O=C(COC(=O)CN1C(=O)COc2ccccc21)NCc1ccc(F)cc1,?,0.3,0,-9,-10,8,4
Cc1ccc(C(=O)Nc2ccccc2C(=O)O)cc1S(=O)(=O)NCc1ccccc1,2595,7.1,4,12,-11,1,2
Cc1ccc(C(=O)CNc2ccc(C)c(Cl)c2)cc1,1906,2.9,6,-1,-18,9,3
O=C(NC1C2CC3CC(C2)CC1C3)c1ccc(N2CCNCC2)c([N+](=O)[O-])c1 (stereo not drawn),.,-0.4,-16,10,-1,3,2
Cc1ccc(OCC(=O)N2CCN(Cc3cccnc3)CC2)cc1,4519,0.6,-4,-4,-12,-12,-5
Cc1cc(-c2nc(C)c(-c3nnc(SCC(=O)Nc4ccccc4)n3C)s2)no1,3862,2.0,8,19,-23,-8,-3
